Rango complex inh – Rango-importin beta binding inhibition. hit rate 0.031% among 340,000. Potency, µM (series often up to 92.2 µM), for inactives: at the top dose inhibition of complex formation. Q14974. Rango CFP/YFP FRET sensor + importin beta, 45 min; active = rising FRET ratio curve, often small or poorly fitted; inconclusive = mostly compound fluorescence or quenching in the first reads; inactive = flat curves in all reads;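 note: potency is the fitted concentration of half-maximal effect; 0% = DMSO wells and 100% = buffer wells lacking importin beta; nearly all actives have a fitted effect of over 15% in size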
Target sequence (Q14974 whole entry, looked up): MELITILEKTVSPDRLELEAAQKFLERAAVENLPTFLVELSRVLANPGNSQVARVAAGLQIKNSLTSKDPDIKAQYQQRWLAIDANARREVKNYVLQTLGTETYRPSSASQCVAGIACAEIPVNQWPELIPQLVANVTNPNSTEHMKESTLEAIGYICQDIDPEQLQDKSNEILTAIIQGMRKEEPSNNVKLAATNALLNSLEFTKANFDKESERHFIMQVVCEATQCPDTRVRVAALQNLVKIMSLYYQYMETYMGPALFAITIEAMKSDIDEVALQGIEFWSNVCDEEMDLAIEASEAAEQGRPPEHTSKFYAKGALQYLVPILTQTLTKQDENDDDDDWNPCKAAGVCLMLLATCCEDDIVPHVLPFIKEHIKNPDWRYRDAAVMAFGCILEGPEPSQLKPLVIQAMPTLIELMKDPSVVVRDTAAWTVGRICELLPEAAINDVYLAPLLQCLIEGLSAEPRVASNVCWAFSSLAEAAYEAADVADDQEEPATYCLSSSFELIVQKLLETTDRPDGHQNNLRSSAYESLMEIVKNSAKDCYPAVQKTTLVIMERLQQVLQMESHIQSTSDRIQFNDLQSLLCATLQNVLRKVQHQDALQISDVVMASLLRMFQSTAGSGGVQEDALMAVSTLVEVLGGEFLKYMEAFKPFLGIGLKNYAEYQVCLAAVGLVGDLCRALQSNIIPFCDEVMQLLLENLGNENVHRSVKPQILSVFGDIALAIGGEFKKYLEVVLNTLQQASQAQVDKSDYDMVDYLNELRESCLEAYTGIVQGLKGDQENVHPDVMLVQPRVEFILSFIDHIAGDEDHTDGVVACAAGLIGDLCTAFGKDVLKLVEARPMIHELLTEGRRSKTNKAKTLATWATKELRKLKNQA
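FRET biosensor Rango (snurportin 1 IBB between N-terminal EYFP and C-terminal Cerulean), 50 nM in PBS/1 mM DTT/0.02% Tween-20/0.1% BSA, preincubated 5 min RT with compound; 0.125 microM importin beta added, 45 min RT, CFP/YFP FRET ratio read.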
miR-21 reporter – miR-21 reporter, rising signal | HeLa miR-21 FLuc reporter, luciferase, 48 h | Potency, µM (titrated, usually from 38.3 µM), for the others: top-dose reporter change, positive = more light | 340,000 tested, under 10 active | AID 2288; active = well fitted rising curve with a large enough effect; inconclusive = small, poorly fitted or top-dose-only effect; inactive = no such curve, though single readings can be large or run the other way;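 note: % of control where 0% means no effect; miR-21 action dims this reporter so a rising signal means less miR-21 action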
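Using DMEM plus 10% FBS, HeLa miR-21-FLuc cells are incubated with test compounds (final up to about 40uM) for 48 hours; firefly luciferase signal is then imaged following reagent-mediated lysis.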
GLA inh pH 4.5 – blocks human alpha-galactosidase A at pH 4.5 | purified enzyme, 4-MU-alpha-Gal fluorescence, pH 4.5 | activity change, negative = inhibition, % at 105 µM | P06280 | 230,000 tested, under 10 active; inconclusive = small, poorly fitted or top-dose-only inhibition, or a rising curve; inactive = flat fitted curve, though single readings scatter; no compound was filed as active;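 note: 0% = full activity with enzyme and -100% = basal without enzyme; dose as in the result columns while the protocol names 77 µM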
Rango dissoc inh – inhibition of RanGTP-driven Rango-importin beta dissociation. O95149+P62826. Biochemical FRET Rango-importin beta, RanGTP-induced dissociation. Potency, µM (doses to about 46.1 µM), inactives show at the highest dose activity change, negative = inhibition. hit rate 0.071% among 340,000. AID 540253; active means falling FRET ratio curve, often poorly fitted, with flat reads before Ran was added; inconclusive means other falling curves, or compound fluorescence or quenching; inactive means flat or rising ratio curve;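 note: potency is the fitted concentration of half-maximal effect; % of control where 0% means no effect; nearly all actives have a fitted effect of over 45% in size; -100% = wells without RanGTP and RCC1; the record marks most hits as doubtful in a second field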
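Compounds sat 5 min at room temperature with 0.1 uM Rango biosensor plus 0.25 uM importin beta, then FRET pre-read. RanGTP-RCC1 (0.6 uM Ran, 2mM GTP, 0.2 uM RCC1) added for 45 min, and the CFP/YFP post-read measured blocked complex dissociation.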
The depositor's hits bear a star; u = inconclusive; x = no result given; & = joins results of further samples. Some of the compounds tested; rates above refer to the full screens.

Rango complex inh,miR-21 reporter,GLA inh pH 4.5,Rango dissoc inh,molecule
-0.5%,-37%,0,-11%,CSc1nc2ccccc2n1Cc1cccc(F)c1
u,2%,-1,u,O=C1c2cccc3c(N4CCCCC4)ccc(c23)C(=O)N1c1ccccc1O
-2.6%,-5%,0,9%,CCOC(=O)c1cccc(NC(=O)CSc2nnc(-c3ccoc3C)n2CC)c1
2.0%,-1%,0,-6%,OCCC1CN(Cc2cc3c(cc2Cl)OCO3)CCN1Cc1ccccc1 (configuration not stated)
1.0%,x,x,20%,CC(C)c1ccc(/C=N/NC(=O)c2ccc(-n3cnnn3)cc2)cc1
1.8%,-2%,-12,-12%,CCNc1nc(N2CCCCC2)nc(-n2nnc(C(=O)OCC)c2C)n1
u,-8%,1,2%,Cc1ccc(C(=O)/C=C/C(=O)O)cc1
-2.6%,-1%,x,-4%,Cc1nn(CC(=O)N2CCCC2)c(=O)c2nn(-c3ccccc3)c(C)c12
0.9%,20%,u,-3%,N=c1c2c(-c3ccccc3)c(-c3ccccc3)n(Cc3ccccc3)c2ncn1CCO
1.2%,-9%,-3,7%,O=C(CN1CCN(c2ccccc2)CC1)Nc1nnc(-c2ccccc2)s1
3.4%,-39%,0,-2%,CC(C)CCn1c(Sc2nc3ccccc3o2)nc2c1c(=O)[nH]c(=O)n2C
-1.0%,0%,x,-9%,NC(=O)C1c2ccccc2Oc2ccccc21
-1.6%,x,x,12%,CC(C)(C)c1ccc(OCC(O)CNC(=O)c2ccccc2C(=O)O)cc1 (configuration not stated)
-3.4%,0%,x,7%,COc1ccc(S(=O)(=O)Nc2c(C)cccc2C)cc1-n1cnnn1
1.5%,-4%,9,-1%,CN(C)CCCNC(=O)Cc1ccc(Br)cc1
2.4%,x,x,8%,CCOc1ccc(CCNC(=O)COC(=O)c2c(OC)cccc2OC)cc1OCC
2.4%,u,-14,22%,O=C(Nc1ccc(Cl)c([N+](=O)[O-])c1)C(Sc1ccccc1)c1ccccc1 (configuration not stated)
-0.9%,-9%,10,-2%,COC(=O)C(C)(C)ONC(=O)Nc1ccc([N+](=O)[O-])cc1
u,x,x,-7%,CN(C)S(=O)(=O)c1ccc(C(=O)N2CCN(C(=O)C3CCCO3)CC2)cc1 (configuration not stated)
-1.1%,-9%,-1,2%,CCOC(=O)CSc1nc2cc3c(cc2cc1CC)OCCO3
5.0%,-1%,3,-12%,COc1ccc(C(=O)N2CCC(C(=O)O)CC2)cc1
-1.3%,-2%,1,7%,CSCCC(NC(=O)c1ccc(Cl)cc1)C(=O)NC(C)(C)C (configuration not stated)
-3.9%,5%,-8,13%,C=CCN(CC=C)S(=O)(=O)c1ccc(NC(=S)NC(=O)c2ccco2)cc1
5.3%,-3%,3,-1%,CCN(CC)C(=O)COc1ccc(-c2nnc(N3CCCCC3)c3ccccc23)cc1
-2.8%,-35%,x,7%,CN(C(=O)c1cc2ccccc2cc1O)C1CCCCC1
-2.9%,2%,13,4%,CCOC(=O)CNC(=O)CCCCCC(=O)NCC(=O)OCC
1.5%,-13%,4,-15%,CCCSc1nc2c(c(=O)n1CC)SC(C)C2 (configuration not stated)
0.0%,1%,-5,-4%,O=C(Cc1cn(Cc2cccc(Cl)c2)c2ccccc12)N1CCCCCC1
0.9%,0%,1,-14%,CC(C)C(OC(=O)c1cccs1)C(=O)NCc1ccco1 (configuration not stated)
1.0%,4%,6,1%,COc1ccc(-n2c(SCc3cccnc3)nc3c(c2=O)SCC3)cc1OC
-0.2%,-8%,1,-13%,O=C(O/N=C\c1ccc(N2CCCCC2)c([N+](=O)[O-])c1)c1ccc(Cl)cc1Cl
-4.1%,x,x,-3%,COc1ccc(NC(=O)COC(=O)c2ccc(C)c(S(=O)(=O)N3CCCCC3)c2)cc1
-0.6%,-23%,x,-4%,CCCCn1nc(C(=O)NNC(=O)c2ccncc2)c2ccccc2c1=O
-0.5%,0%,x,47%,Cc1cc(NC(=O)c2ccc(Cn3cc([N+](=O)[O-])cn3)o2)no1
1.5%,-1%,u,-19%,COc1ccc(N2C(=O)C(F)(F)C2c2ccccc2F)cc1 (configuration not stated)
-1.3%,0%,x,16%,O=S(=O)(N1CCOCC1)N1CCOCC1
3.2%,-27%&-61%,x,1%,CCc1nonc1NC(=O)c1oc2cc(C)c(C)cc2c1C
-0.2%,2%,6,24%,CN(C)CCCNC(=O)C(=O)NCC1CCCO1 (configuration not stated)
-3.4%,-1%,x,4%,CC1CCN(C(=O)CSc2nc3c(c(=O)n2C)SC(C)C3)CC1 (configuration not stated)
-1.3%,1%,-3,3%,O=C(NCc1ccco1)c1ccc(Cl)c(S(=O)(=O)N2CCOCC2)c1
2.0%,x,x,6%,COc1ccc(C(c2c(NC(=O)c3ccco3)sc(C)c2C)N2CCOCC2)cc1 (configuration not stated)
u,-53%,-12,u,Cc1ccc2nc(/C(C#N)=C\c3ccc(N4CCOCC4)o3)[nH]c2c1
-2.6%,-6%,4,4%,CCCCOc1cc(=O)[nH]c(=O)[nH]1
3.2%,9%,x,2%,CC(C)(C)NC(=O)C(c1ccc(O)cc1)N(C(=O)CCC(=O)Nc1ccccn1)c1ccc(F)cc1 (configuration not stated)
-3.6%,x,x,6%,COc1ccc2[nH]c3c(c2c1)CCN1C(=O)C(CC(=O)NCC24CC5CC(CC(C5)C2)C4)C[C@H](C(=O)N(C(C)C)C(C)C)[C@@]31C (some centres not stated)
0.4%,x,x,-6%,CCN(CC(=O)Nc1c(F)cccc1F)C(=O)C1CCN(S(=O)(=O)c2ccccc2C(=O)OC)CC1
0.5%,3%,x,-14%,O=C(O)/C=C/c1ccc(S(=O)(=O)Nc2ccccc2C(=O)Nc2ccc(F)cc2)cc1
-3.0%,-1%,-7,1%,CC(C)c1ccc2[nH]c(O)c(N=NC(=O)c3cccc(S(=O)(=O)Nc4cccc(Cl)c4)c3)c2c1
-2.6%,x,x,2%,CC(CN1CCN(CC(C)C(=O)c2ccccc2)CC1)C(=O)c1ccccc1 (configuration not stated)
-0.4%,-6%,-1,-7%,Clc1ccccc1CSc1nnc(Cn2cnc3ccccc32)n1-c1ccccc1
3.9%,0%,-15,-19%,CCOC(=O)C1(O)CC(C)=NN1C(=O)c1cccc(Br)c1 (configuration not stated)
-1.3%,x,x,-3%,CN(Cc1cccc(Cl)c1Cl)C(=O)c1ccccc1SCC(=O)N1CCCC1
2.8%,-1%,4,4%,COc1ccccc1CN1C(=O)C(=O)N(Cc2cccc(C)c2)C1=O
-1.9%,-3%,0,-2%,Nc1nc(CN2CCN(Cc3ccccc3)CC2)nc(N2CCCc3ccccc32)n1
-0.3%,x,x,0%,Cc1cc(=O)oc2cc(OCC(=O)NC3CCCCC3)c(Cl)cc12
4.8%,-5%,x,-15%,COc1cc(/C=N/NC(=O)c2ccncc2)ccc1OC(=O)c1cccc(F)c1
-0.6%,-14%,-20,3%,CC(C)(C)n1ncc2c(=O)n(CC(=O)NCc3ccccc3Cl)cnc21
u,-29%,6,-29%,Cc1cc(=O)[nH]c(SCC(=O)Nc2ccccc2C#N)c1C#N
-2.4%,-48%,-5,1%,CC1(C)CC(=O)c2sc(N3CCCCC3)nc2C1
-5.0%,-3%,11,28%,Fc1ccc(Oc2cnns2)cc1

One compound at a time (already shown).
Listed for CC(C)c1ccc2[nH]c(O)c(N=NC(=O)c3cccc(S(=O)(=O)Nc4cccc(Cl)c4)c3)c2c1 → Rango complex inh: -3.0%; miR-21 reporter: -1%; GLA inh pH 4.5: -7; Rango dissoc inh: 1%
Listed for CN(Cc1cccc(Cl)c1Cl)C(=O)c1ccccc1SCC(=O)N1CCCC1 → Rango complex inh: -1.3%; miR-21 reporter: x; GLA inh pH 4.5: x; Rango dissoc inh: -3%

Back to the main list, starting 3 compounds before the break.
Rango complex inh,miR-21 reporter,GLA inh pH 4.5,Rango dissoc inh,molecule
u,-29%,6,-29%,Cc1cc(=O)[nH]c(SCC(=O)Nc2ccccc2C#N)c1C#N
-2.4%,-48%,-5,1%,CC1(C)CC(=O)c2sc(N3CCCCC3)nc2C1
-5.0%,-3%,11,28%,Fc1ccc(Oc2cnns2)cc1
-0.7%,-1%,5,1%,COc1ccc(N(CC(=O)Nc2cc(C)on2)S(=O)(=O)c2ccc(Cl)cc2)cc1
1.1%,-1%,-7,9%,CCOC(=O)c1ccc(NC(=O)CSc2nnc(NC(=O)c3ccc(S(=O)(=O)N4CCOCC4)cc3)s2)cc1
0.4%,-20%,x,11%,CCOC(=O)c1sc2c(c1C)c(=O)n(CCO)c(=O)n2Cc1ccccc1
7.9%,0%,0,-8%,O=C(CN1c2ccccc2Sc2ccccc21)NNC(=O)Nc1ccc(Cl)c(Cl)c1
1.0%,-4%,-1,-3%,COC(=O)CN1C(=O)Nc2ccc(C)cc2C1c1ccccc1 (configuration not stated)
5.1%,-3%,2,-19%,O=C(CCCC(=O)OCC(Cl)=C(Cl)Cl)Nc1ccccc1F
-1.7%,-3%,3,-10%,CCOc1ccc(C(=O)Nc2cccc3nsnc23)cc1[N+](=O)[O-]
1.8%,1%,5,3%,COCCNC(=O)C1=NOC(Cn2cc(C#N)c(=O)n(C)c2=O)C1 (configuration not stated)
-0.6%,x,x,0%,NC(=O)c1ccc(NC(=O)COC(=O)CCN2C(=O)c3ccccc3C2=O)cc1
1.0%,-46%,x,0%,Cc1nc(-c2ccc([N+](=O)[O-])cc2)nc2[nH]ccc(=O)c12
8.9%,x,x,-8%,O=C(Nc1ncccn1)c1ccc([N+](=O)[O-])cc1[N+](=O)[O-]
-0.3%,2%,3,5%,CN(C)S(=O)(=O)c1ccc(C(=O)Nc2cccc(S(=O)(=O)NC3=NCCC3)c2)cc1
4.5%,-10%,2,0%,Cc1c(C(=O)Nc2ccc(-c3nnc4n3CCCCC4)cc2)oc2ccc(Br)cc12
7.3%,1%,x,1%,COc1ccc(N2CCN(C(=O)COc3ccc(S(=O)(=O)N4CCOCC4)cc3C)CC2)cc1
u,x,x,-27%,COc1ccc(-c2c(C#Cc3ccsc3)c3cc(-c4ccc5[nH]ccc5c4)ccc3n2C)cc1
1.8%,-1%,2,10%,O=C(COC(=O)c1cc(Br)ccc1O)Nc1cc(S(=O)(=O)N2CCCC2)ccc1Cl
x,-17%,5,x,O=C(N/N=C/c1cccs1)c1cccc(NC(=O)c2ccc(Cl)cc2)c1
-3.4%,-68%,x,-1%,CCN(CC)S(=O)(=O)c1ccc2oc(Nc3ccccc3)nc2c1
u,-2%,-2,1%,Cc1ccc(C(=O)NCCCNc2ccc(C(F)(F)F)cc2[N+](=O)[O-])cc1
2.3%,-6%,2,1%,CCOC(=O)N1CCN(C(=O)CCS(=O)(=O)c2ccc(Br)s2)CC1
0.6%,-2%,-26,-5%,COc1ccc(/C=N/N=C2/NC(=O)C(CC(=O)O)S2)cc1OS(=O)(=O)c1ccccc1 (configuration not stated)
0.6%,-3%,x,0%,CCCc1nc(SCC(=O)O)c2sc(=S)n(-c3ccccc3)c2n1
-0.4%,4%,x,-15%,Cc1ccc2c(=O)cc(C(=O)NCCc3ccc(S(N)(=O)=O)cc3)oc2c1C
1.8%,x,x,22%,CCN(C(=O)COC(=O)c1cccc(C)c1[N+](=O)[O-])c1c(N)n(Cc2ccccc2)c(=O)[nH]c1=O
-3.7%,2%,-11,-4%,CC1Cc2ccccc2N1S(=O)(=O)c1c(N)n(C)c(=O)n(C)c1=O (configuration not stated)

Source: PubChem (National Center for Advancing Translational Sciences (NCATS))
